Beta cell apopt: beta cell apoptosis inhibition; INS-1E cytokine-induced death, ATP luminescence, 48 h; percent of positive-control rescue, neutral wells zero; protection from apoptosis, % (concentration not given with the values); hit rate 0.8% among 300,000; AID 435005;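 active means all replicates at 75% or more, or half of them and the mean; inconclusive means half reach 75% but not the mean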;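 further: 0% = cytokine-treated negative control wells and 100% = positive control rescue; higher means more ATP so stronger rescue from cytokine killing; wells of about 40 µL received 100 nL stock; the first replicate is given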
ALR inh: blocks human ALR sulfhydryl oxidase activity; P55789; purified ALR, DTT oxidation, H2O2 HRP-luminol luminescence; inhibition, % (concentration not given with the values); hit rate 3.8% among 290,000;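 active means mean and each replicate at 75% or more; inconclusive means only one of the two met; inactive means neither met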;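 further: stock transfer was 7.5 nL into about 7.5 µL; 0% = neutral wells and 100% = wells with inactivated enzyme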
Target sequence (P55789 whole entry, looked up): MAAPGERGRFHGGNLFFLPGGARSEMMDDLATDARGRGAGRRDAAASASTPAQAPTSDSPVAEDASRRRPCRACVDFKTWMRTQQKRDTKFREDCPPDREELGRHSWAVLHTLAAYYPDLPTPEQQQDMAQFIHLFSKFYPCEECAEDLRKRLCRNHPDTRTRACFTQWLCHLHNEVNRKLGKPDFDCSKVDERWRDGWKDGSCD
Beta2AR agonist: activates human beta-2 adrenergic receptor causing internalization; hit rate 0.43% among 340,000; P07550; response, % (concentration not given with the values); Am2.2-beta2AR cells, FAP receptor internalization, flow cytometry; reference of the scale not given here;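 active means response above a set limit, near 3 SD of response in nonfluorescent compounds, cut at about 42% in these data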;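 further: stock transfer was 100 nL into about 11 µL; a reference agonist was the positive control; negative values mostly stem from fluorescent compounds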
Target sequence (P07550 whole entry, looked up): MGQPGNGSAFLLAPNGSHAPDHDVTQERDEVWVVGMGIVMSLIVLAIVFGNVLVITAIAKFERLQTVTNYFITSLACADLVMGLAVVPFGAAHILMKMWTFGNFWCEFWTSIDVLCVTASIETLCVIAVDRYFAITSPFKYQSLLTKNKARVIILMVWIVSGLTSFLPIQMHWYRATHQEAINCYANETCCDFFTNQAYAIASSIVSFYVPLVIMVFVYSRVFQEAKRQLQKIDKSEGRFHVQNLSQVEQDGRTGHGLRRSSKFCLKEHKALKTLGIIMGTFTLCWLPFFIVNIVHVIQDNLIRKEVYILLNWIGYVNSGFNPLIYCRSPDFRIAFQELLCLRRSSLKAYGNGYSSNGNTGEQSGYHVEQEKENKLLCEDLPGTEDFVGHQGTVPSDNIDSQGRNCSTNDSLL
LANA-H2A inh: blocks KSHV LANA binding to histone H2A/H2B. Q9QR71. cell-free LANA-H2A/H2B peptide, fluorescence polarization. inhibition, % (concentration not given with the values). hit rate 0.6% among 320,000; in the data active means inhibition mostly above about 10%, no sharp cut-off; inactive means mostly below about 6.7%;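 further: stock transfer was 7.5 nL into about 10 µL; 0% = median of vehicle wells and 100% = median of positive control wells; one replicate is shown; the record names a cut of 25% in any replicate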
Calb FLC: affects C. albicans growth with fluconazole | C. albicans CaCi-2 (fluconazole-resistant clinical isolate) + fluconazole, Alamar Blue growth, 48 h | growth inhibition, % (concentration not given with the values) | hit rate 0.57% among 300,000 | AID 1979;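 active means most replicates above 75%; inconclusive means exactly half above 75%; inactive means most below 75%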;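 further: all wells also contain fluconazole at 8 µg/ml as a sub-toxic cotreatment; 0% = median of DMSO wells and 100% = median of geldanamycin control wells; wells of about 8 µL received 7.5 nL stock; the first replicate is given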
T cruzi repl: T. cruzi replication inhibition | T. cruzi beta-gal in NIH3T3, luminescence, 90 h | inhibition, % (no concentration beside the values) | hit rate 1.4% among 300,000;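 active means mean inhibition across valid replicates above about 55%, limit read from the data; inconclusive means mean below that limit but half or more replicates reach it; inactive means mean below it, under half of replicates reach it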;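 further: signal also drops with host cell toxicity which is not excluded here; 0% = plate median of DMSO wells and 100% = zero luminescence signal; higher percent means less beta-gal luminescence so fewer parasites; stock transfer was 50 nL into about 50 µL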
rRNA inh HTS: inhibitors of bacterial rRNA selective over humanized ribosomes. E. coli WT GFP vs humanized-ribosome RFP mutants, fluorescence, 24 h; active compounds read low; DMSO median 0, no signal -100. GFP signal change (wild-type ribosome), % (test concentration not listed). hit rate 1.6% among 350,000. AID 720706;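 active means significant combined selectivity score with lowered wild-type GFP, culture density cut under 30%, mutant RFP and density less affected; inactive means any of these conditions unmet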; further: one replicate is shown; some compounds called inactive have numbers as strong as hits
Bfl-1 A1 inh: inhibitors of the anti-apoptotic protein A1, read as caspase activation | MEF A1-2A-BIM cells, Caspase-Glo 3/7 luminescence, 3 h; percent of clofoctol response, vehicle zero | hit rate 0.066% among 330,000 | caspase activation, % (no concentration beside the values) | AID 2462;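 active means over half of replicate activation scores above 10%, or exactly half above 10 with the replicate mean above 10; inconclusive means replicate mean below 10 yet half the replicates above 10; inactive means over half of replicates below 10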;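 further: wells of about 30 µL received 50 nL stock; many hits fall short of the cut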
rRNA inh HTS OD600: second read-out of rRNA inh HTS, no call of its own (marks repeat the call); OD600 change, %; measured here: OD600 growth;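 optical density of the mix in the first replicate; 0 = DMSO median and -100 = no signal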
rRNA inh HTS RFP: second read-out of rRNA inh HTS, no call of its own (marks repeat the call); RFP signal change, %; measured here: RFP humanized mutant strains;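 first replicate; 0 = DMSO median and -100 = no signal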
The depositor's hits bear a star; ? = inconclusive; nt = no result given; ! = not active in a repeat.

entry	Compound	Beta cell apopt	ALR inh	Beta2AR agonist	LANA-H2A inh	Calb FLC
1	Nn1c(SCC(=O)Nc2ccc(F)cc2F)nnc1C1CCCCC1	-5	5	-5	7.3	-5
2	CN(Cc1ccccc1)c1nc2c(c(=O)n(C)c(=O)n2C)n1CCSc1ncccn1	-1	nt	-26	10	2
3	Cc1ccccc1C(=O)NNC(=O)c1cccc(Br)c1	-10	-2	-2	4.6	5
4	Cc1ccn2c(C(=O)CSc3ccccc3Cl)c(C)nc2c1	-2	0	-7	4.7	7
5	O=C(NCc1ccccc1)N1CCCC1	-1	1	-2	0.2	-1
6	CCOc1ccc(-c2cnc(SCC(N)=O)nc2N)cc1	nt	-3	-9	2.2	-9
7	CCO/N=C(\C)c1c(O)c2ccccc2n(C)c1=O	-15	-2	4	3.6	10
8	O=C(O)Cn1nc(C(F)(F)F)c2c1CCC2	nt	-1	2	-5.7	7
9	NC1=C(O)C(=O)C(c2ccccc2)O1 (stereo unspecified)	-1	-14	5	-2.4	-4
10	O=C(CN1C(=O)NC2(CCCC2)C1=O)OCCOc1ccc(Cl)cc1	-3	0	-1	4.1	16
11	CCC(=O)Oc1ccc2c(c1)O/C(=C\c1ccco1)C2=O	1	14	-1	6.9	0
12	Cc1cc(O)c(C(C)C)cc1NC(=O)c1ccc(Cl)cc1	-6	34	3	-0.9	-7
13	N#CNC(=Nc1cccc(C(F)(F)F)c1)SCc1ccc(C(=O)O)cc1	0	99*	4	0.8	-5
14	Cc1ccc(C)c(NC(=S)NC(NC(=O)Cc2cccc3ccccc23)C(Cl)(Cl)Cl)c1 (stereo unspecified)	76*	0	-4	-5.6	-4
15	COC(=O)c1ccc(COc2ccccc2/C=C(\C#N)C(=O)Nc2c(C)cccc2C)cc1	107*	-1	10	-1.6	-1

entry	T cruzi repl	rRNA inh HTS	rRNA inh HTS OD600	rRNA inh HTS RFP	Bfl-1 A1 inh
1	-5	nt	nt	nt	0.8
2	2	-4	-9	-4.4	-0.4
3	-18	17	15	0.6	0.3
4	-9	nt	nt	nt	-0.6
5	-6	5	6	-0.1	-0.1
6	-11	nt	nt	nt	-0.2
7	-6	nt	nt	nt	-1.2
8	-14	nt	nt	nt	-1.0
9	-3	10	7	0.7	-0.2
10	-27	-7	-11	2.4	0.5
11	0	11	13	8.5	-2.0
12	18	nt	nt	nt	0.1
13	1	3	0	1.4	0.2
14	38	nt	nt	nt	12*
15	43	14	6	-1.9	0.7

(further entries)
entry	Compound	Beta cell apopt	ALR inh	Beta2AR agonist	LANA-H2A inh	Calb FLC
16	C=CCn1c(SCc2nc3ccccc3c(=O)[nH]2)nc2ccccc2c1=O	-3	5	1	0.6	-7
17	C/C(=N\NC(=O)C1(C)CC1(Br)Br)c1ccc(C)cc1C (stereo unspecified)	-1	-9	-10	0.2	-3
18	CCOc1ccccc1CNn1cnnc1	-2	-2	-7	2.7	-8
19	CN(C)C=NC(=O)c1cc(C(=O)c2ccc(F)cc2)c[nH]1	-6	0	4	0.1	13
20	COCc1cc(C)nc(OCC(=O)N/N=C/c2ccc(OC)c(OC)c2)c1C#N	-11	1	2	1.7	16
21	CC1=NN(C(=O)c2ccc(Cn3cc(Br)c([N+](=O)[O-])n3)o2)C(O)(C(F)(F)F)C1 (stereo unspecified)	-12	1	-4	-3.9	-4
22	Cc1nnc(NC(=O)CSc2nc(CC(C)C)nc3c2c(=O)n(C)c(=O)n3C)s1	2	-6	-24	-0.7	-34
23	CCCSc1nc(NCc2ccco2)c2c3c(sc2n1)COC(C)(CC)C3 (stereo unspecified)	11	3	-5	-1.9	7
24	COCCN1Cc2cccc(C(=O)NCCc3ccccc3)c2C1=O	1	-18	3	5.2	-2
25	Cc1ccc(C(=O)NCCSC(C)(C)C)cc1[N+](=O)[O-]	1	-3	-2	-1.1	-26
26	COc1ccc(C(C(=O)Nc2ccc3c(c2)OCO3)N(C)C(=O)Cc2c[nH]c3ccccc23)cc1 (stereo unspecified)	-1	4	15	-1.2	-5
27	COc1ccc(-c2cnnn2-c2ccc(NC(=O)c3ccc(S(=O)(=O)N4CCCCC4)cc3)cc2)cc1	16	0	2	-2.8	-21
28	COc1ccc(C)cc1N1C(=N)/C(=C2/Nc3ccccc3S2)C(c2ccccc2)C1=O (stereo unspecified)	-3	nt	45*	0.6	nt
29	Cc1ccccc1N1C(=O)CC(Nc2ccc3c(c2)OCO3)C1=O (stereo unspecified)	2	95*	7	-6.7	?
30	COCCN(C(=O)COC(=O)c1ccco1)c1c(N)n(Cc2ccccc2)c(=O)[nH]c1=O	0	-2	-7	5.6	0

entry	T cruzi repl	rRNA inh HTS	rRNA inh HTS OD600	rRNA inh HTS RFP	Bfl-1 A1 inh
16	-19	nt	nt	nt	-0.1
17	4	-7	-14	-2.5	1.7
18	-8	14	2	-0.1	0.1
19	-7	10	9	-4.1	0.4
20	2	9	8	-2.0	1.3
21	12	-15	-21	-9.6	-4.1
22	18	11	-2	-14	-1.3
23	47	nt	nt	nt	-0.2
24	8	6	7	2.1	-0.4
25	-15	nt	nt	nt	-0.4
26	30	-13	-24	-6.7	-0.7
27	1	nt	nt	nt	-0.5
28	nt	nt	nt	nt	1.2
29	-7	nt	nt	nt	-1.0
30	-17	7	7	-0.5	?

Among those listed so far, these contain an NH in an aromatic ring.
entry	Compound	Beta cell apopt	ALR inh	Beta2AR agonist	LANA-H2A inh	Calb FLC
16	C=CCn1c(SCc2nc3ccccc3c(=O)[nH]2)nc2ccccc2c1=O	-3	5	1	0.6	-7
19	CN(C)C=NC(=O)c1cc(C(=O)c2ccc(F)cc2)c[nH]1	-6	0	4	0.1	13
26	COc1ccc(C(C(=O)Nc2ccc3c(c2)OCO3)N(C)C(=O)Cc2c[nH]c3ccccc23)cc1 (stereo unspecified)	-1	4	15	-1.2	-5
30	COCCN(C(=O)COC(=O)c1ccco1)c1c(N)n(Cc2ccccc2)c(=O)[nH]c1=O	0	-2	-7	5.6	0

entry	T cruzi repl	rRNA inh HTS	rRNA inh HTS OD600	rRNA inh HTS RFP	Bfl-1 A1 inh
16	-19	nt	nt	nt	-0.1
19	-7	10	9	-4.1	0.4
26	30	-13	-24	-6.7	-0.7
30	-17	7	7	-0.5	?

Rewritten with values under each structure: 3 of the compounds above.
Second line of a record – Beta cell apopt	ALR inh	Beta2AR agonist	LANA-H2A inh	Calb FLC	T cruzi repl	rRNA inh HTS	rRNA inh HTS OD600	rRNA inh HTS RFP	Bfl-1 A1 inh
[28] COc1ccc(C)cc1N1C(=N)/C(=C2/Nc3ccccc3S2)C(c2ccccc2)C1=O (stereo unspecified)
→ -3	nt	45*	0.6	nt	nt	nt	nt	nt	1.2
[30] COCCN(C(=O)COC(=O)c1ccco1)c1c(N)n(Cc2ccccc2)c(=O)[nH]c1=O
→ 0	-2	-7	5.6	0	-17	7	7	-0.5	?
[22] Cc1nnc(NC(=O)CSc2nc(CC(C)C)nc3c2c(=O)n(C)c(=O)n3C)s1
→ 2	-6	-24	-0.7	-34	18	11	-2	-14	-1.3

Additional records
entry	Compound	Beta cell apopt	ALR inh	Beta2AR agonist	LANA-H2A inh	Calb FLC
31	COc1ccc(N2CCN(C(=O)CSc3nnc4c(C)cc5c(C)cc(C)cc5n34)CC2)cc1	-14	0	2	-0.1	-9
32	O=C(Nc1cccc(NC(=O)c2cccnc2)c1)c1cccnc1	3	-8	-5	0.0	0
33	CCCCC(CC)CNC(=O)C1CC=CCC1C(=O)O (stereo unspecified)	-10	1	4	2.7	2
34	CN(CC(=O)Nc1cccc(S(=O)(=O)NC2=NCCC2)c1)Cc1ccccc1Cl	-3	1	-6	0.5	nt
35	Cc1cc(NC(=O)C(C)SCC(=O)OC(C)C(=O)Nc2cccc(C#N)c2)no1 (stereo unspecified)	-5	-1	0	2.4	-1
36	CC(NC(=O)Nc1ccc(F)cc1)c1ccc2c(c1)OCO2 (stereo unspecified)	4	1	-5	2.0	-9
37	O=C(c1cc(C(=O)N2CCOCC2)c2nc3ccccc3n2c1)c1ccccc1O	1	-34	nt	-3.7	4
38	CCCCOC(=O)Cn1c(=O)n(CC(=O)OCCCC)c2cc(C)ccc21	-15	8	-4	-2.4	3
39	Cc1cc(-c2ccc(C)c(S(=O)(=O)Nc3cccc(CN4CCCC4)c3)c2)on1	0	-3	-2	0.2	-6
40	CS(=O)(=O)N(CC(=O)NCCSCc1cccc(Cl)c1)c1ccc(F)cc1	-7	-4	-2	-0.4	6
41	Cn1c(CCNC(=O)c2cccs2)nnc1SCC(=O)N1CCN(c2ccccc2)CC1	0	67	7	-6.0	-4
42	Cc1ccc(CS(=O)(=O)c2ncc(Cl)c(C(=O)Nc3nnc(C)s3)n2)cc1	nt	98*	6	nt	-3
43	COc1ccc(S(=O)(=O)N2CCCC2=O)cc1N(C)S(C)(=O)=O	nt	4	1	-4.2	-4
44	COc1ccc(-c2nc3c(=O)n(C)c(=O)[nH]c3n2CCc2ccccc2)cc1	3	-2	-8	20*!	-1
45	COc1cc(C(=O)OCCN2CCOCC2)cc(OC)c1OC	-8	1	7	-0.1	5

entry	T cruzi repl	rRNA inh HTS	rRNA inh HTS OD600	rRNA inh HTS RFP	Bfl-1 A1 inh
31	12	nt	nt	nt	-0.2
32	-24	15	9	1.6	0.7
33	-4	nt	nt	nt	0.2
34	nt	-9	-15	-0.2	-0.1
35	4	18	11	-0.2	1.9
36	11	-1	-3	-3.1	-0.7
37	-3	-6	-7	-2.0	0.0
38	-10	nt	nt	nt	0.6
39	0	-7	-5	-6.9	-0.6
40	5	-31	-37	-0.6	1.1
41	-11	nt	nt	nt	-1.2
42	-10	10	5	0.5	nt
43	-10	14	7	1.0	0.4
44	-9	nt	nt	nt	0.1
45	-1	8	9	-7.5	0.1

Other results.
entry	Compound	Beta cell apopt	ALR inh	Beta2AR agonist	LANA-H2A inh	Calb FLC
46	COc1ccc(N2C(=O)CCC(C(=O)Nc3ccccn3)C2c2ccc(OC)c(OC)c2)cc1 (stereo unspecified)	-2	-20	0	-4.9	6
47	O=C(C[C@H]1C/C=C\CCC(=O)OC[C@H]2CCCN2C1=O)NCCO	-5	-7	1	-0.2	nt
48	CCCC/C(C)=N\NC(=O)CNS(=O)(=O)c1ccc([N+](=O)[O-])cc1	-4	-12	-7	-2.2	-3
49	O=C(NCCc1ccccc1)c1ccnc(/C=N/O)c1	-1	-13	8	-0.3	6
50	Cc1ccc2nc3c(cc(C(=O)NCCc4ccccc4)c(=N)n3CCN3CCOCC3)c(=O)n2c1	8	-1	-11	-4.4	-3
51	CCOc1cnc(-c2c(-c3c(Cl)cccc3Cl)noc2C)o1	-10	6	7	-2.1	9
52	CSc1nc2n(n1)C(c1cc(Br)ccc1F)C(C(=O)N(C)C)=C(C)N2 (stereo unspecified)	-3	15	-6	-0.8	-23

entry	T cruzi repl	rRNA inh HTS	rRNA inh HTS OD600	rRNA inh HTS RFP	Bfl-1 A1 inh
46	2	nt	nt	nt	0.5
47	nt	0	0	-7.5	1.6
48	-1	nt	nt	nt	-0.5
49	-3	nt	nt	nt	-1.0
50	17	nt	nt	nt	-2.3
51	7	-39	-42	-6.6	0.3
52	-9	nt	nt	nt	0.1

Not all compounds are listed; count on the stated rates, not on these rows.
